# Compound activity: PubChem BioAssay, several laboratories
# Rce1 inh = blocks yeast Ras-converting enzyme; Q03530; yeast membranes, quenched prenylated peptide cleavage fluorescence; calls only; actives 0.27% (n = 290,000);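 active means fall in fluorescence gain of 50% or more versus controls, with final raw signal at or below 3038400; inconclusive means same 50% fall but final raw signal above 3038400; inactive means fall in fluorescence gain under 50%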;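 further: plate controls were neutral control wells for no effect and wells lacking membranes for full effect; tested at 10 µM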
# MT1-MMP act inh = inhibitors of human MT1-MMP activation; AID 651647; GFP/RFP ratio change, % at 20 µM; HT1080 RFP-PRO-GFP cells, GFP/RFP ratio fluorescence, overnight; percent of plate control window, DMSO zero; actives 0.061% (n = 360,000); P50281;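 active means GFP/RFP ratio change of at least 30% with cell ATP level not reduced by more than half and red fluorescence within 50% of control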; further: strong numbers were not always called active
#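 Assay system: HT1080 RFP-PRO-GFP cells | Dosing: 20 µM single dose, 1% DMSO | Incubation: Cells overnight before dosing, compound overnight, 37 °C, 5% CO2 | Evaluation: GFP/RFP fluorescence ratio | Control set: DMSO-only wells and HT1080 RFP-L50D-GFP cell wells as references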
# UUG fidelity = yeast start codon fidelity modulation | S. cerevisiae UUG-firefly luciferase reporter, luminescence/redox ratio | activity score, % at 18.7 µM | actives 0.13% (n = 350,000) | AID 602363;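 active means replicate mean at a twofold rise or more, about +100% in these data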;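 further: firefly luciferase made from a UUG start codon reports start codon fidelity; reporter light over untreated wells divided by growth signal over untreated wells; some hits fall short of that in this replicate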
# CSC inhib = cancer stem cell inhibition. cancer stem cell-like cells viability, luminescence. actives 1.1% (n = 300,000). inhibition, % at 7.5 µM;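 active means mean at 75% or more and at least half the replicates too; inconclusive means mean and replicates disagree; tested in HMLE shEcad cells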;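 further: 0% = median of negative and 100% = median of positive control wells; the first replicate is given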
# Env fusion inh = inhibitors of HIV Env-mediated cell fusion | HeLa-JRFL Env/CEM21 cell fusion, luciferase | inhibition, % at 12.3 µM | actives 1.1% (n = 360,000) | AID 651610;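 active means mean replicate inhibition score of at least 50 and every replicate individually at or above 50; inconclusive means only one of the two criteria met; inactive means mean below 50 and not all replicates reaching 50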;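 further: 0% = plate neutral controls and 100% = maraviroc near 300 nM; one replicate is shown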
# eIF4H FP inh = inhibitors of RNA binding by human eIF4H | Q15056 | eIF4H fluorescence polarization binding assay | inhibition, % at 35 µM | actives 0.94% (n = 290,000) | AID 2012;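 active means 50% or more with normal probe brightness, or confirmed in later tests; inconclusive means above 50% with abnormal brightness, or retests that disagree; inactive means below 50% or failed in later tests; about a fifth of its hits are not listed in these tables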;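 further: calls also rest on retests at 20 µM and on dose response follow-up; 0% = protein and probe with vehicle and 100% = probe without protein; strong numbers were not always called active; many hits fall short of the cut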
# PABP FP inh = PABP-poly(A) binding inhibition; PABP-poly(A) RNA binding, fluorescence polarization; AID 2014; actives 1% (n = 290,000); inhibition, % at 35 µM; P11940;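 active means 50% or more with normal probe brightness, or confirmed in later tests; inconclusive means above 50% with abnormal brightness, or retests that disagree; inactive means below 50% or failed in later tests; about a fifth of its hits are not listed in these tables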;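 further: calls also rest on retests at 20 µM and on dose response follow-up; controls were probe without protein and protein plus probe with vehicle; some compounds called inactive have numbers as strong as hits; many hits fall short of the cut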
# Target sequence (P11940 whole entry, looked up): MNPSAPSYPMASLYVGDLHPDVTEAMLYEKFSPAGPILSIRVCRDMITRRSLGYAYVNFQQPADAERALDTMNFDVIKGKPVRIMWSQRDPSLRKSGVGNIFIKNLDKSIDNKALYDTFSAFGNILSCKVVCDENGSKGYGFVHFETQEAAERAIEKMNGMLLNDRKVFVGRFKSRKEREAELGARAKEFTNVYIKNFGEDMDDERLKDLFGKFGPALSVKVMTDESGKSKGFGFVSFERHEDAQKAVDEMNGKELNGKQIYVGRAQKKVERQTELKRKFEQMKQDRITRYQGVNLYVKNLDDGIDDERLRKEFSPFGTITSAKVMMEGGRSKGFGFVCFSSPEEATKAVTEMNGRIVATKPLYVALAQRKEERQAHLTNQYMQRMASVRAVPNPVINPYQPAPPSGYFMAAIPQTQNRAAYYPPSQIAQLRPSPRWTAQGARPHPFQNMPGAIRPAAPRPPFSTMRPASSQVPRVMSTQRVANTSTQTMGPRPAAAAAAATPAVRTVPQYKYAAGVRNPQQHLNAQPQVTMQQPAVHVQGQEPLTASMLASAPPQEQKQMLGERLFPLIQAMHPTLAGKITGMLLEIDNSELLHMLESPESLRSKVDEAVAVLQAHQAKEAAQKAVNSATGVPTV
# MT1-MMP act inh RFP = recorded beside MT1-MMP act inh, whose call it bears; RFP signal change, %; measured here: RFP expression control read;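 0 = vehicle wells; hits needed this value within 50% of zero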
# Starred values were filed as active, the others as inactive; i = inactive; ? = inconclusive; . = not tested or not shown; & = joins results of further samples; [ ] = dose if it differs, or a comment. A portion of the library, so the mix of outcomes need not match the whole.
SMILES,Rce1 inh,MT1-MMP act inh,MT1-MMP act inh RFP,UUG fidelity,CSC inhib,Env fusion inh,eIF4H FP inh,PABP FP inh
Cc1ccccc1-n1c(SCC(=O)N/N=C/C=C/c2ccccc2[N+](=O)[O-])nc2ccccc2c1=O,i,-0.7,-6.9,.,?,-2.1,-2.6,-6.7
CC(C)C(=O)N1CCC1(C)C(=O)Nc1cc(-c2ccccc2)nn1C (stereo not drawn),.,3.9,2.1,-13.5,.,-37.6,.,.
O=C(CNC(=O)c1cc(S(=O)(=O)N2CCCCC2)ccc1N1CCOCC1)Nc1ccc(F)c(F)c1,i,3.3,-1.1,.,-15.8,.,.,.
Cc1ccc(CSCCNS(=O)(=O)c2ccc([N+](=O)[O-])cc2)cc1,i,-0.9,-3.4,-13.5,2.8,13.7,-8.1,4.0
CC1(C)CC(=O)C2=C(C1)OC1=C(C(=O)CC(C)(C)C1)C2c1ccc(O)cc1O,i,-40.6,-33.5,.,29.7,i,?,?
CC(C)[C@H](NC(=O)[C@@H]1Cc2ccccc2CN1)C(=O)NC1CCCCC1,i,2.9,3.7,-9.5,5.9,-2.8,-16.3,-0.8
CCCC1NC(=O)c2cccnc2-n2c1nc1ccc(Br)cc1c2=O (stereo not drawn),.,0.4,-1.1,4.9,.,5.6,.,.
Cc1ccc(CN(c2ccc(C(=O)N3CCCC3)cc2)S(C)(=O)=O)cc1,i,1.1,-1.0,0.3,2.7,.,-3.4,5.2
Cc1ccc(S(=O)(=O)N2CCOCC2)cc1NC(=O)CSc1nnc(COc2ccccc2F)n1N,.,-1.3,-3.4,-15.0,.,-5.0,.,.
C/C(=N\c1nc2ccccc2n1C)c1cc(Cl)ccc1O,i,1.9,6.4,-9.8,-10.3,.,-5.7,-3.0
COC(=O)C1C(=O)c2c(n[nH]c2C)CC1(C)C (stereo not drawn),i,3.2,3.3,-6.2,-4.8,-20.4,1.6,-3.0
CC(=O)S[C@@H]1CC2=CC(=O)CC[C@]2(C)[C@H]2CC[C@@]3(C)[C@@H](CC[C@@]34CCC(=O)O4)[C@H]12,i,4.4,-4.9,-4.4,-1.8,-34.5,.,.
Cc1cccc(CSc2nnc(-c3cccs3)n2Cc2ccco2)c1,i,-1.0,-4.2,-4.5,-2.2,5.2,1.4,-3.9
O=C1CC2CS(=O)(=O)CC2N1c1ccc(Cl)cc1Cl (stereo not drawn),i,-2.1,0.5,3.9,-6.6,-51.0,-13.3,6.8
NC(=O)CCn1c(C(=O)c2cccc([N+](=O)[O-])c2)c2ccccc2[n+]1[O-],i,2.1,1.5,-18.4,-3.3,6.0,-6.9,-9.3
CCOC(Cn1c(SCc2cc(C(C)=O)ccc2OC)nc2ccccc2c1=O)OCC,i,-2.2,2.1,-14.9,10.9,.,7.5,12.6
COc1cc(C(=O)Sc2ccc(C)cc2)cc(OC)c1OC,i,-11.8,-7.2,.,18.8,.,0.4,-5.4
Cc1cc(NC(=O)Nc2cccc3ccccc23)no1,i,-2.2,2.9,-20.1,-10.4,-12.3,-3.2&2.6,-11.8&-2.2
O=C(Cn1cc(SCc2ccc(Cl)cc2)c2ccccc21)N1CCOCC1,i,3.6,-3.4,-32.6,6.2,10.6,-8.3,-17.4
O=c1ccn([C@@H]2O[C@H](CNCc3c(OCc4ccccc4F)ccc4ccccc34)[C@@H](O)[C@H]2O)c(=O)[nH]1,.,0.5,1.1,-13.4,.,-22.1,.,.
O=C(NCCNc1ccc([N+](=O)[O-])cc1)c1cccc2c(Br)cccc12,i,0.3,-7.6,.,14.5,18.3,7.9,39.2
COc1ccccc1C(=O)O/N=C(/c1ccncc1)c1ccc([N+](=O)[O-])cc1,i,1.4,0.3,.,5.5,10.5,-4.1,-3.7
OCC[C@@H]1C[C@H](O)[C@@H](O)[C@@]2(OCCCc3cc(Cl)ccc32)O1,.,-1.4,-0.5,-10.9,.,12.2,.,.
O=C1CCCC(O)=C1C=Nc1cccc(C(F)(F)F)c1,i,-2.4,3.8,2.5,-5.9,4.7,3.5,6.3
CCOC(=O)N1CCC(NC(=O)C2CCCN(Cc3nc(-c4cccc(Cl)c4)oc3C)C2)CC1 (stereo not drawn),i,-4.2,-21.9,-8.1,14.5,35.3,-5.2,-5.2
CCOc1ccc2nc(NC(=O)CSc3ccc(Cl)cc3)sc2c1,i,2.4,2.0,.,-0.2,-22.1,2.4,-1.8
C=CC[C@@H]1Cc2c(Br)ccc(Br)c2[C@@H](CC=C)N1,i,-1.3,-1.5,-22.0,5.4,7.0,-10.7,-4.6
COc1cccc(C2CC(c3ccc(C)cc3)=NN2C(=O)c2ccccc2F)c1OC (stereo not drawn),i,-15.0,-8.2,-14.1,-2.7,4.1,-8.8,-7.4
Cc1ccc(C)c(OCCC(=O)OCC(=O)NC(=O)NC2CCCC2)c1,i,-2.1,0.0,0.9,-1.5,.,.,.
c1ccc(C2=NNC(=NC3CC3)SC2)cc1,i,0.1,-0.2,-52.5,11.0,.,-6.7,14.4
O=C(Nc1ccc2c(c1)OCO2)c1ccncc1,i,4.4,-1.5,-16.7,-8.0,.,-2.3,-2.9
O=C(NCc1cccnc1)c1cc(C(=O)C2CC2)c[nH]1,i,-0.3,2.2,.,.,1.4,-9.8,-7.1
COc1cccc(CNC(=O)COC(=O)c2ccc(N3CCCC3=O)cc2)c1,.,-2.2,5.2,-21.4,.,-16.7,.,.
CCN(CC)c1ccc(NC(=O)CN2CCN(CC(=O)Nc3ccccc3F)CC2)cc1,i,-1.8,0.2,8.5,-15.1,.,-2.2,-20.2
CN1CCC(N2CCN(C3CN(C4CCCCC4)S(=O)(=O)C3)CC2)CC1 (stereo not drawn),.,2.3,7.0,-11.3,.,9.2,.,.
CCCCN(C(=O)Cn1ncc(Cl)c(Cl)c1=O)c1c(N)n(CC(C)C)c(=O)[nH]c1=O,.,3.7,4.8,4.8,-1.3,.,?,?
O=S(=O)(Nc1ccc(N2CCOCC2)cc1)c1ccc2ccccc2c1,i,2.1,0.1,.,-16.1,14.2,1.2,4.2
Cn1nnc(NC(=S)NC(=O)c2ccc3ccccc3c2)n1,.,3.0,3.8,-16.7,.,-131.9,.,.
Cc1cc(=O)oc2cc(NC(=O)c3ccccc3OC(F)F)ccc12,i,-6.4,-1.8,.,3.2,-38.4,0.1,2.0
CCn1ncc(/C=C/C(=O)C2CC2)c1C,i,1.4,6.0,-8.9,-6.9,.,-6.6,-6.9
COC(=O)[C@@H](N)Cc1ccc(O)cc1,i,.,.,.,-1.0,.,-12.4,18.3
CCOC(=O)C1=C(C)N=c2s/c(=C/c3ccc(OCC(=O)O)cc3)c(=O)n2C1c1ccc(F)cc1 (stereo not drawn),i,-5.8,-6.2,-13.7,3.0,12.4,2.5,20.2
CC(C)(C)NC(=O)C1CCCN(S(=O)(=O)c2cccc3cccnc23)C1 (stereo not drawn),i,1.1,1.7,-4.9,2.9,1.4,6.1,6.5
COC(=O)c1cccc(N/C=C(\[N+](=O)[O-])S(=O)(=O)c2ccccc2)c1,i,-3.0,1.3,-7.0,-10.0,-2.2,-2.7,6.6
NC(=O)c1cccn1-c1ncc(C(F)(F)F)cc1Cl,i,1.2,4.3,-6.7,7.8,4.7,-9.8,-15.8
COC(=O)C(Cc1c[nH]c2ccccc12)NC(=O)C(=O)c1c[nH]c2ccccc12 (stereo not drawn),i,-2.9,2.5,1.1,-15.2,-2.6,-11.2,-0.9
Cc1ccc2c(c1)C(c1ccc(O)cc1)(c1ccc(O)cc1)C(=O)N2C,i,1.7,1.3,.,-5.7,10.8,9.4,-5.7
O=C(c1cc2ccccc2o1)N1CCN(Cc2ccc3c(c2)OCO3)CC1,i,9.5,2.6,-7.1,9.0,21.4,-12.7,-12.0

# Reformatted with values under each structure: 3 of the compounds above.
# Order of results: Rce1 inh, MT1-MMP act inh, MT1-MMP act inh RFP, UUG fidelity, CSC inhib, Env fusion inh, eIF4H FP inh, PABP FP inh
- O=C(c1cc2ccccc2o1)N1CCN(Cc2ccc3c(c2)OCO3)CC1
  i, 9.5, 2.6, -7.1, 9.0, 21.4, -12.7, -12.0
- Cc1cc(=O)oc2cc(NC(=O)c3ccccc3OC(F)F)ccc12
  i, -6.4, -1.8, ., 3.2, -38.4, 0.1, 2.0
- CCn1ncc(/C=C/C(=O)C2CC2)c1C
  i, 1.4, 6.0, -8.9, -6.9, ., -6.6, -6.9

# Next section.
SMILES,Rce1 inh,MT1-MMP act inh,MT1-MMP act inh RFP,UUG fidelity,CSC inhib,Env fusion inh,eIF4H FP inh,PABP FP inh
O=C1C2C3C=CC(CC3)C2C(=O)N1c1ccc(Br)cc1[N+](=O)[O-] (stereo not drawn),i,0.2,-1.3,-4.0,-1.5,16.5,-5.1,13.2
O=C(CN1CCN(c2nc(-c3ccc(Cl)cc3)cs2)CC1)NCc1ccco1,i,-18.0,-15.4,-16.7,.,60.3*,-1.5,-0.4
CC1(C)Cc2cccc(OCC(=O)N3CCN(S(=O)(=O)c4ccccc4F)CC3)c2O1,i,1.7,-0.3,-9.3,6.0,23.5,6.6,0.8
COc1cccc2sc(=NC(=O)CCS(=O)(=O)c3ccc(C)cc3)n(C)c12,i,-1.9,-3.6,-7.6,-1.0,1.0,.,.
O=C(Nc1cc(Cl)ccc1N1CCOCC1)c1ccc2c(c1)OCCO2,i,-4.8,-4.1,-5.9,8.1,14.9,-2.8,1.7
O=C(COc1ccc(OCc2ccccc2)cc1)NN=C1CCCC1,i,0.8,7.6,.,11.8,-11.9,-5.3,47.7
Cc1ccc2c(c1)-c1ncc(C(=O)c3cc(Br)ccc3O)cc1CO2,i,.,.,.,-2.1,14.4,-10.3,5.5
Cc1nn(C)cc1S(=O)(=O)Nc1ncccn1,i,-5.6,3.3,-22.9,3.6,18.3,0.8,4.1
CN(C)CCn1c(=N)n(CC(O)c2ccc(Cl)c(Cl)c2)c2ccccc21 (stereo not drawn),i,-8.0,-9.4,.,5.2,-1.7,-5.9,28.4
C/C(=N/Nc1nc(-c2ccccc2)c(CC(=O)O)s1)c1ccccc1,i,-20.2,-10.5,.,.,-26.1,-13.7,-4.9
CCOc1ccccc1C1C(C#N)=C(N)Oc2cc(N)ccc21 (stereo not drawn),i,-2.6,2.1,-15.3,-7.2,3.8,7.5,9.5
NC(=O)C1=C[C@@H](c2csc3ccccc23)C[C@@H](OCCCCO)O1,i,3.9,2.0,16.5&18.1,7.2,-1.7[16.7 µM],-0.3,12.4
N#CCSc1nc2ccccc2c(=O)n1C1CCCCC1,i,-1.3,-5.8,.,15.9,8.6,13.7,-3.6
Cc1cccc2cc(CN(Cc3cccnc3)C(=O)c3ccncc3)c(=O)[nH]c12,i,-2.0,2.9,-17.8,-0.2,-9.1,-6.5,-7.4
CC1CCN(CCc2nc3cc(NC(=O)Nc4ccccc4)ccc3n2C)CC1,i,-5.8,-7.8,-11.2,-2.6,-143.3,1.3,1.9
CCOC(=O)C1=C(COC(=O)c2ccc(Cl)cc2[N+](=O)[O-])NC(=O)NC1C (stereo not drawn),i,-3.2,1.9,.,-5.2,9.7,.,.
COc1ccc2nc(SCC(=O)N(C)CC(=O)Nc3ccc(F)cc3)[nH]c2c1,.,3.8,-0.4,.,-11.0,-98.4,.,.
O=C(O)CSc1nnc(CSc2nc3ccccc3s2)n1-c1ccccc1,i,-0.9,5.5,5.6,7.3,7.2,2.9,-1.9
COc1ccc(-c2c(-c3ccccc3OC)sc3ccccc23)cc1OC,i,-3.4,-2.9,-7.2,20.1,-6.8,7.2,-5.9
